Marburg entry inh: qHTS for inhibitors of binding or entry into cells for Marburg Virus. 1.8% of 300,000 active. Marburg virus pseudotyped entry inhibition, cell reporter; control for the full effect not named in the record; about a third of the inactives were read at about 46 µM. Potency, µM (top dose mostly 37.8 µM), for inactives: top-dose activity change, negative = inhibition, usual class: inhibitors; active = well fitted inhibition curve with a large enough effect; inconclusive = small, poorly fitted or top-dose-only effect, or effect the other way; inactive = flat fitted curve, though single readings scatter; tested in HEK293 cells; about a fifth of its hits are not listed in these tables; note: % is set by controls: 0 for no effect and ±100 for the full control effect; luciferase read-out
RE007 growth inh: qHTS Assay for Inhibitors of the HIV-1 protein Vpr; AID 651644, 2012; S. pombe RE007 Vpr strain, BacTiter-Glo ATP luminescence, 24 h; control for the full effect not named in the record; Potency, µM (doses to about 92.2 µM), inactives show top-dose activity change, negative = less growth; 0.21% of 360,000 active; active = well fitted falling curve with a large enough effect; inconclusive = small, poorly fitted or top-dose-only effect; inactive = no such curve, though single readings can be large or run the other way;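 note: % is set by controls: 0 for no effect and ±100 for the full control effect; nearly all actives have a fitted effect of over 50% in size; the assay follows cell death caused by Vpr and the record does not say whether a fall means rescue or toxicity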
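Fission yeast strain RE007, carrying one chromosomally integrated HIV-1 vpr copy, was seeded at OD 0.01 in PMG+AL medium with 23 nL pinned compound. After 24 h at 30 °C and 99% humidity, viability was read by BacTiter-Glo luminescence.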
Cruzain inh noDet: qHTS Assay for Promiscuous and Specific Inhibitors of Cruzain (without detergent). purified cruzain, Z-FR-AMC fluorescence, no detergent. Potency, µM, inactives show max response, negative = inhibition, most hits filed as inhibitors. 2.3% of 200,000 active. AID 1476, 2009;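 note: plate controls were enzyme without inhibitor for no effect and buffer without enzyme for full effect; nearly all actives have a fitted effect of over 40% in size; top concentration of the series not given in the record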
Target sequence (P25779 123-467 limits assumed): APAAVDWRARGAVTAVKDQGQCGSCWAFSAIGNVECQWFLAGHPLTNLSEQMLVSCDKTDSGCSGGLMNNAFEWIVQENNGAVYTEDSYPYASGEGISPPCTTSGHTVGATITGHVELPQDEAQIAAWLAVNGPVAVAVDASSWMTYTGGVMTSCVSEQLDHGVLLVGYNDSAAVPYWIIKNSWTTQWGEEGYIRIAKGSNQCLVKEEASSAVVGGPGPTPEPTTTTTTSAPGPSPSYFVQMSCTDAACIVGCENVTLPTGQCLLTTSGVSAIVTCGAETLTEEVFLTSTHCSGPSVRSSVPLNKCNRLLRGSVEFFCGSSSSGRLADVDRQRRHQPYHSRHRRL
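Purified cruzain at 1.5 nM, pre-incubated 15 min with compound at room temperature in 100 mM sodium acetate pH 5.5, 5 mM DTT, 0.00005% Triton X-100. Reaction started with 2 uM Z-FR-AMC; AMC fluorescence increase over 60 s gives rate.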
2A StopGo: High Throughput Screening for Foot and Mouth Disease Virus Antivirals; AID 1159524, 2015; human cells with a luciferase reporter of 2A StopGo recoding; control for the full effect not named in the record; Potency, µM (doses to about 57.9 µM), inactives show at the top dose signal change, negative = less light; 1.2% of 410,000 active; active = well fitted falling curve with a large enough effect; inconclusive = small, poorly fitted or top-dose-only effect; inactive = no such curve, though single readings can be large or run the other way; tested in HEK293T cells; note: % is set by controls: 0 for no effect and ±100 for the full control effect; nearly all actives have a fitted effect of over 45% in size; luciferase light after 4 h
NS1 function inh: qHTS Assay for Inhibitors of Influenza NS1 Protein Function; S. cerevisiae slowed by influenza A NS1, growth recovery by OD600; Potency, µM (titrated, usually from 46.1 µM), without a hit: at the highest dose activity, positive = more growth; 0.4% of 270,000 active; AID 2326, 2010; active means well fitted rising curve with a large enough effect; inconclusive means small, poorly fitted or top-dose-only effect; inactive means no such curve, though single readings can be large or run the other way; note: nearly all actives have a fitted effect of over 50% in size
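Compounds were scored for reversing the slow growth caused by influenza A NS1 in S. cerevisiae, measured by optical density at 600 nm. Assay medium contained 2% galactose at pH 6.0; NS1-free yeast of the same strain were the positive control.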
SARS PLpro yeast: qHTS of Yeast-based Assay for SARS-CoV PLP. S. cerevisiae expressing SARS-CoV PLpro, growth rescue; control for the full effect not named in the record. Potency, µM (titrated, usually from 32.9 µM), inactives show top-dose activity, positive = growth rescue. 0.19% of 330,000 active. AID 485353, 2010; active means well fitted rising curve with a large enough effect; inconclusive means small, poorly fitted or top-dose-only effect; inactive means no such curve, though single readings can be large or run the other way; note: 0% is about no effect; nearly all actives have a fitted effect of over 55% in size; growth read by luminescence after 48 h
LASV entry inh: qHTS for Inhibitors of binding or entry into cells for Lassa Virus; Potency, µM (titrated, usually from 37.9 µM), without a hit: top-dose activity change, negative = inhibition, most hits filed as inhibitors; AID 540256, 2011; 1.2% of 300,000 active; Lassa virus pseudotype entry inhibition, cell reporter; control for the full effect not named in the record; active means well fitted inhibition curve with a large enough effect; inconclusive means small, poorly fitted or top-dose-only effect, or effect the other way; inactive means flat fitted curve, though single readings scatter; tested in HEK293 cells; note: % is set by controls: 0 for no effect and ±100 for the full control effect; nearly all actives have a fitted effect of over 50% in size; luciferase read-out
Cruzain Triton: qHTS Assay for Promiscuous and Specific Inhibitors of Cruzain (with detergent); Cruzipain (Trypanosoma cruzi), P25779; purified cruzain, Z-FR-AMC fluorescence, 0.01% Triton; Potency, µM, for the others: max response, negative = inhibition, actives largely listed as inhibitors; 0.43% of 200,000 active; AID 1478, 2009;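 note: plate controls were neutral wells for no effect and buffer without enzyme for full effect; nearly all actives have a fitted effect of over 40% in size; top concentration of the series not given in the record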
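Purified cruzain (1.5 nM final) was preincubated with compounds for 15 min at room temperature in 100 mM sodium acetate pH 5.5, 5 mM DTT, 0.01% Triton X-100. Reaction started with 2 uM Z-FR-AMC; AMC fluorescence change over 60 s gave activity.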
* marks the source's active call; other numbers are inactive results; ? = inconclusive; nt = not tested or not shown; [ ] = dose if it differs, or a comment. Unless noted, calls come from the whole dose curve; as a rule, active = well fitted curve in the direction sought with a large enough effect; inconclusive = small, poorly fitted or top-dose-only effect, or another doubt; inactive = no such curve, though single readings can be large; an effect the other way counts as inactive or inconclusive. Potency is the fitted concentration of half-maximal effect.

SMILES | Marburg entry inh | RE007 growth inh | Cruzain inh noDet | 2A StopGo | NS1 function inh | SARS PLpro yeast | LASV entry inh | Cruzain Triton
O=C1c2ccccc2C(=O)N1CCSc1nncs1 | 32% | 0% | -7% | nt | -10% | 5% | 3% | 3.6%
COc1ccc(NC(=O)Cn2c(=O)cc(C)c3c(C)nn(-c4cccc(Cl)c4C)c32)cc1OC | nt | nt | ? | -9% | nt | nt | -3%[46.1 µM] | 0.5%
CCN(CC)c1ccc(N=Nc2ncn[nH]2)cc1 | ? | -24% | nt | -15% | nt | -7% | ? | nt
COc1ccc(S(=O)(=O)N2CCCCC2)cc1NC(=O)Cc1sc(C)nc1-c1ccc(F)cc1 | ? | -11% | nt | -16% | nt | 0% | ? | nt
Cc1nc2c(-c3ccccc3)c(C)nn2c(C)c1CC(=O)O | 0% | 6% | -3% | 16% | -3% | -1% | 16% | 0.7%
COc1ccc(NC(=O)CSc2nc(-c3cccs3)cc(C(F)(F)F)n2)c(OC)c1 | 10%[46.1 µM] | nt | -2% | -25% | nt | nt | -12%[46.1 µM] | -2.8%
CC(NC(=O)/C(C#N)=C/c1ccc(N2CCOCC2)cc1)c1ccccc1 (stereo not given) | -1%[46.1 µM] | 2% | nt | -29% | ? | -5% | -4%[46.1 µM] | nt
COc1ccc(CCC(=O)NCCc2cn3c(C)csc3n2)cc1 | nt | -4% | 0% | 8% | -6% | 10% | nt | 3.9%
O=[N+]([O-])c1cc(Cl)c2cccnc2c1O | ? | ? | nt | -29% | -74% | -3% | -22%[46.1 µM] | nt
CCOC(=O)C1CCC(CN(Cc2ccccc2)S(=O)(=O)c2ccc([N+](=O)[O-])cc2)CC1 (stereo not given) | -22% | -11% | -12% | ? | -19% | -33% | -20% | -4.3%
CC1CCN(C(=S)NC2CC3CCC2C3)CC1 (stereo not given) | 15% | 1% | 13% | -4% | -15% | 17% | -1% | -2.1%
CCOc1cc(C(=S)N2CCOCC2)ccc1OS(=O)(=O)c1ccc(OC)cc1 | ? | 19% | nt | -17% | 1% | 0% | ? | nt
O=C(CSc1nnc(C2CC2)n1-c1ccccc1)NCCc1ccccc1 | ? | -3% | -4% | 0% | 2% | 5% | -12% | 2.5%
CC(=O)c1ccc(OCCCN2CCCCC2)cc1 | 3% | 9% | -8% | 10% | 6% | 4% | -16% | 4.7%
COc1ccc2c(c1)[nH]c1c(=O)n(CCc3cnc[nH]3)cnc12 | 1% | 12% | -5% | 30% | 2% | 18% | -11% | 0.3%
COc1ccc(CCNC(=O)C2CCN(S(C)(=O)=O)CC2)cc1OC | 13% | 1% | 2% | 3% | -8% | 2% | ? | 2.3%
N#CC(=C1CCCC1)c1nc(-c2ccc(Cl)cc2)cs1 | ? | -14% | 0% | 48%[activator] | -7% | -7% | 1% | -2.7%
COc1ccc(NS(=O)(=O)c2cc(NC(=O)c3ccc(=O)[nH]c3)ccc2N2CCOCC2)cc1 | 8%[46.1 µM] | 10% | nt | 102%[activator] | 7% | 0% | 4% | nt
CCOC(=O)Nc1ccccc1N1C(=O)c2ccccc2C1=O | 16% | 12% | -4% | 5% | 2% | 0% | 24% | 1.4%
CCOC(=O)c1ccc(Nc2nc3ccccc3n3c(C)nnc23)cc1 | nt | nt | 3% | 0% | nt | nt | -2%[46.1 µM] | -9.7%
COc1ccc(CCNC(=O)C2CCN(S(=O)(=O)c3ccc(F)cc3)CC2)cc1 | nt | 1% | nt | -20% | 10% | 2% | nt | nt
NC(=O)c1c(NC(=O)c2cc(-c3ccc(F)cc3)on2)sc2c1CCCC2 | 6%[46.1 µM] | nt | 8% | 6% | nt | nt | 17%[46.1 µM] | -7.5%
Cn1cc(Br)c(C(=O)NN2C(=O)C3C(C2=O)C2C=CC3C23CC3)n1 (stereo not given) | nt | 4% | nt | 9% | 2% | 0% | nt | nt
CCc1ccc(C(=O)NCC2COc3ccccc3O2)o1 (stereo not given) | ? | 9% | 0% | 7% | -16% | -5% | 0% | 0.8%
OCCC1CN(Cc2cnc(-c3ccc(Cl)cc3)nc2)CCN1C1CCCCC1 (stereo not given) | nt | -12% | nt | -13% | 0% | 0% | nt | nt

A draw from above in order of molar mass, smallest number first:
SMILES | Marburg entry inh | RE007 growth inh | Cruzain inh noDet | 2A StopGo | NS1 function inh | SARS PLpro yeast | LASV entry inh | Cruzain Triton
COc1ccc(CCC(=O)NCCc2cn3c(C)csc3n2)cc1 | nt | -4% | 0% | 8% | -6% | 10% | nt | 3.9%
Cn1cc(Br)c(C(=O)NN2C(=O)C3C(C2=O)C2C=CC3C23CC3)n1 (stereo not given) | nt | 4% | nt | 9% | 2% | 0% | nt | nt
COc1ccc(NC(=O)CSc2nc(-c3cccs3)cc(C(F)(F)F)n2)c(OC)c1 | 10%[46.1 µM] | nt | -2% | -25% | nt | nt | -12%[46.1 µM] | -2.8%
CCOC(=O)C1CCC(CN(Cc2ccccc2)S(=O)(=O)c2ccc([N+](=O)[O-])cc2)CC1 (stereo not given) | -22% | -11% | -12% | ? | -19% | -33% | -20% | -4.3%

The results go on.
SMILES | Marburg entry inh | RE007 growth inh | Cruzain inh noDet | 2A StopGo | NS1 function inh | SARS PLpro yeast | LASV entry inh | Cruzain Triton
Cc1cccc(Nc2ccc3nonc3c2[N+](=O)[O-])c1C | -1% | 4% | nt | -14% | 1% | -2% | 4% | nt
CCOc1cccc(-c2c(C(=O)N/N=C/c3ccoc3)nnn2-c2nonc2N)c1 | 0%[46.1 µM] | 0% | nt | 20% | 10% | -4% | 9%[46.1 µM] | nt
CCOC(=O)c1sc(N)nc1C(C)C | 11% | -1% | -4% | -1% | 5% | -1% | 0% | -0.5%
COc1cccc(CN(C)C(=O)c2csc3c2CCCC3)c1OC | 4%[46.1 µM] | 11% | nt | 1% | nt | -4% | 0%[46.1 µM] | nt
Cc1cc(C(=O)NCC(=O)Nc2c(C)cccc2C)c(C)o1 | ? | -13% | nt | 24% | 0% | 2% | 3%[46.1 µM] | nt
Cc1ccc(S(=O)(=O)N(C)CC(=O)NCCc2c[nH]c3ccccc23)cc1 | -26%[46.1 µM] | -14% | nt | 16µM* | -3% | 2% | nt | nt
CC(=O)c1ccc(OCCCC(=O)NC2CCCc3ccccc32)cc1 (stereo not given) | 7% | -4% | 2% | -1% | -5% | 10% | 26% | -4.8%
CCC1(C)Cc2c(sc3nc(SC)n(-c4ccc(C)cc4)c(=O)c23)CO1 (stereo not given) | 9%[46.1 µM] | nt | -12% | -11% | nt | nt | -8%[46.1 µM] | -0.5%
Cc1csc2c(=O)sc(NC(=O)c3cccs3)nc12 | -12%[46.1 µM] | -12% | nt | -7% | -8% | 1% | -1% | nt
CN(C)c1cc[n+](CC(=O)N2c3ccccc3Sc3ccccc32)cc1 | -19% | -21% | nt | -21% | -1% | 0% | -19% | nt
Cc1cccc(CNC(=O)CN2C(=O)CCn3nc(-c4cn(C)c5ccccc45)cc32)c1 | nt | nt | ? | -11% | nt | nt | -6%[46.1 µM] | -0.4%
O=C(NCCCN1CCOCC1)c1cnccn1 | nt | -4% | nt | -4% | -10% | 0% | nt | nt
Cc1cccc(-c2cc3nc(-c4ccccc4)cc(=O)n3[nH]2)c1 | ? | -3% | nt | 23% | 0% | -1% | ? | nt
Cc1cc(CNC(=O)c2cccc(OC3CCN(S(=O)(=O)N(C)C)CC3)c2)on1 | 12%[46.1 µM] | 9% | nt | -1% | -7% | ? | 10%[46.1 µM] | nt
COC(=O)c1ccc(OCCN2C3=NCCN3c3ccccc32)cc1 | ? | -29% | 1% | -6% | 0% | 8% | 6% | 5.1%
CCOC(=O)NC1(C(F)(F)F)C(=O)N(Cc2ccccc2)C2=C1C(=O)CC(C)(C)C2 (stereo not given) | 0% | 1%[3.69 µM] | -3% | -4% | -7% | 1% | 5% | 1.2%
COCn1c(-c2cccc(Br)c2)nc2ccccc21 | ? | 9% | 4% | 19% | -17% | -7% | 10% | -2.5%
Cc1cc(CC(C)C)n(-c2nc3ccccc3c(=O)n2OCC(N)=O)n1 | 7% | -8% | 8% | 21% | 1% | -2% | 20% | 3.2%
O=C(NCC(c1ccco1)N1CCN(c2ccccc2)CC1)c1ccc2c(c1)OCO2 (stereo not given) | 0%[46.1 µM] | 8% | nt | -25% | nt | 0% | -23% | nt
Nc1c(Cl)ncnc1N1CCN(c2ncnc(Cl)c2N)CC1 | 21% | 5% | -1% | -22% | 3% | -15% | ? | -2.6%
Cc1ccc(C)c(-c2nnc(NC(=O)c3ccco3)o2)c1 | ? | 8% | nt | -1% | nt | -18% | ? | nt
COc1ccc2[nH]c(=O)c(C(c3nnnn3C3CCCC3)N3CCN(Cc4ccc5c(c4)OCO5)CC3)cc2c1 (stereo not given) | ? | -12% | 5% | ? | 1% | 4% | -28% | -5.2%
CCc1ccc(Nc2n[n+](-c3ccccc3)c(-c3ccc(C(=O)O)cc3)s2)cc1 | nt | 10% | nt | 6% | 15% | 0% | nt | nt
Cc1c(Br)c([N+](=O)[O-])nn1CC(=O)NCc1ccccn1 | -20% | -2% | -3% | -8% | 1% | 3% | 30%[14.3 µM] | 4.7%
CCOC(=O)CSc1ncnc2c1cnn2-c1ccc(C)cc1C | 13%[46.1 µM] | 12% | nt | -15% | nt | 1% | 2% | nt
Cc1nc2ccc(N)cc2c(=O)n1Cc1ccc(Cl)cc1 | 26%[46.1 µM] | 19% | -4% | 0% | -3% | 22% | ? | -4.1%
O=C(N/N=C\c1ccc(-c2ccccc2[N+](=O)[O-])o1)C1COc2cc3ccccc3cc2O1 (stereo not given) | 0% | -2% | 7.9µM* | -21% | 10% | -3% | -15% | -2.1%
Cc1ccc(C(=O)OCC(=O)NC(=O)c2cccn2C)cc1[N+](=O)[O-] | nt | 0% | nt | -16% | 3% | 1% | nt | nt

Compounds as they come; about 4.7% have a hit in one of these screens.
